Compound activity from PubChem.
N370S GC – N370S glucocerebrosidase modulation, Gaucher chaperone candidate | N370S GC spleen homogenate, 4MU-glucoside fluorescence | Potency, µM (titrated, usually from 59.4 µM), for inactives: top-dose activity change, negative = inhibition, hits mostly inhibitors | 330,000 tested, 0.092% active | AID 2101; active means well fitted inhibition curve with a large enough effect; inconclusive means small, poorly fitted or top-dose-only effect, or effect the other way, or another doubt; inactive means no such curve, though single readings can be large or run the other way;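 further: 0% = full enzyme activity and -100% = no enzyme basal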
Numbers without * were called inactive; ? = inconclusive; & = joins results of further samples; [ ] = dose if it differs, or a comment. Potency means the concentration at half of the fitted maximal effect. Only part of the results is shown; most or all hits stand in other tables.

SMILES | N370S GC
COc1cccc(OC)c1C(=O)NC(=S)Nc1cc(-c2nc3ccccc3[nH]2)ccc1Cl | -12.9%
COc1ccc(/C=C(\C#N)C(=O)Nc2cc(S(=O)(=O)N3CCOCC3)ccc2N2CCCC2)cc1 | 1.0%
COc1ccnc(NCc2ccc(Cl)cc2)c1C#N | 3.8%
Cc1ccccc1/C=N/Nc1nc2ccccc2c(=O)n1O | 5.5%
CCN(CC)S(=O)(=O)c1cccc(NC(=O)CNc2cccc(S(=O)(=O)N3CCOCC3)c2)c1 | 2.0%
CC(OC(=O)CC(NC(=O)c1ccccc1Cl)c1ccccc1)C(=O)Nc1cccc(Cl)c1Cl (stereo not given) | 6.0%
COCCn1c(=S)[nH]c2cc(C(=O)N3CC(C)CC(C)C3)ccc2c1=O (stereo not given) | -2.7%
O=C1NC2=C(C(=O)CCC2)C(c2ccccc2[N+](=O)[O-])N1 (stereo not given) | -17.4%
CC(=O)c1cccc(NC(=O)CNC(=O)c2cc3ccccc3o2)c1 | -2.9%
CCC(C)c1ccc(NC(=S)Nc2ccc(OC)cc2C)cc1 (stereo not given) | -1.6%

4 entries picked at random from those above:
SMILES | N370S GC
COCCn1c(=S)[nH]c2cc(C(=O)N3CC(C)CC(C)C3)ccc2c1=O (stereo not given) | -2.7%
CCC(C)c1ccc(NC(=S)Nc2ccc(OC)cc2C)cc1 (stereo not given) | -1.6%
Cc1ccccc1/C=N/Nc1nc2ccccc2c(=O)n1O | 5.5%
O=C1NC2=C(C(=O)CCC2)C(c2ccccc2[N+](=O)[O-])N1 (stereo not given) | -17.4%

Continuation.
SMILES | N370S GC
Cn1c(=O)oc2cc(S(=O)(=O)N3CCC(C(=O)N4CCc5ccccc5C4)CC3)ccc21 | 6.5%
NC(=O)C(Cc1ccccc1)N1C(=O)c2ccccc2C1=O (stereo not given) | -7.9%
CN(C)S(=O)(=O)c1ccc(NC(=O)CN2CCC(Cc3ccccc3)CC2)cc1 | 0.0%
Cc1ccc(-c2cn3cc([N+](=O)[O-])ccc3n2)cc1 | 24.7%
Cc1cc(SCC(=O)c2ccccc2)nc(=O)[nH]1 | 0.0%
Cc1cccc(-c2nnc(SCC(=O)c3ccc(O)cc3O)n2C)c1 | 1.6%
N#Cc1cccc(-c2cc(-n3ccnc3)ncn2)c1 | 5.3%
Cc1ccc(C(=O)NNC(=O)C2CCN(c3nc(C)cc(C)n3)CC2)cc1 | 16.6%
COCCn1c(=NC(=O)CCS(=O)(=O)c2ccccc2)sc2cc(C)ccc21 | -3.0%
Cc1ccc2c(c1)N(CC(=O)NCc1ccco1)C(=O)C(C(C)C)O2 (stereo not given) | 2.3%
Cc1ccccc1OCc1nnc(SCC(=O)O)n1-c1cccc(Cl)c1 | -6.0%
CCN1CCN(C(=S)Nc2sc(C)c(-c3ccccc3)c2C(=O)OC)CC1 | -18.1%
COc1cc2c(c(OC)c1OC)C(c1ccc(C)cc1)CC(=O)O2 (stereo not given) | -7.0%[89.1 µM]
O=C(/C=C/c1cccc([N+](=O)[O-])c1)N(c1ccccn1)c1ccccn1 | 2.3%
O=C(OCC(=O)c1ccccc1Br)c1ccncc1 | 10.9%
CCOc1ccc(NS(=O)(=O)c2ccc(OCC(=O)N3CCCC3)cc2)cc1 | 5.1%
COc1cccc2c1C(=O)c1c(O)c3c(c(O)c1C2=O)C[C@@](O)(C(C)=O)C[C@@H]3O[C@H]1C[C@H](N)[C@H](O)[C@H](C)O1 | 18.5%&-1.8%&-8.4%&-21.4%
O=C(NCc1ccc(Cl)cc1)c1cnccn1 | 0.1%
Cc1ccc(N=C2NC(=O)c3cc([N+](=O)[O-])ccc32)cc1 | 9.0%
COc1cccc(C(=O)NCCS(=O)(=O)N2CCCCCC2)c1 | 0.5%

Of the compounds above, these have a cyano group:
SMILES | N370S GC
COc1ccc(/C=C(\C#N)C(=O)Nc2cc(S(=O)(=O)N3CCOCC3)ccc2N2CCCC2)cc1 | 1.0%
COc1ccnc(NCc2ccc(Cl)cc2)c1C#N | 3.8%
N#Cc1cccc(-c2cc(-n3ccnc3)ncn2)c1 | 5.3%

Next section
SMILES | N370S GC
CC(C)n1nc(C(=O)Nc2ccccc2N2CCOCC2)c2ccccc2c1=O | 6.3%
CCCc1cc(=O)[nH]c(SCC(=O)N(CC)C2CCS(=O)(=O)C2)n1 (stereo not given) | -2.2%
Cc1ccccc1NC(=O)N1C2CCCC1CC(NC(=O)C1CC1)C2 (stereo not given) | 1.3%
O=C(O)c1ccc2cccnc2n1 | -5.6%
COc1ccc(-c2nc(SCc3ccccc3)n(S(C)(=O)=O)n2)cc1 | 3.6%
C=CCOc1c2ccc(C(=O)NCc3ccc(C)cc3)cc2nn1C | 8.3%
CC(C)CCN(CCC(C)C)CC(O)Cn1c2ccccc2c(=O)c2ccccc21 (stereo not given) | 5.4%
CCc1cccc(C)c1NC(=O)CSc1nc2ccc(N3C(=O)c4ccccc4C3=O)cc2s1 | -18.5%
O=C(C/C(=N\NC(=O)c1ccccc1Br)C(F)(F)F)c1cccs1 | 3.0%
COc1c(F)c(F)c(C(=O)Nc2ccc(NC(=O)c3ccco3)cc2)c(F)c1F | -8.9%
CC(=O)Nc1cccc(NC(=O)C(F)(F)F)c1 | 9.9%
O=C1CC(N2CCN(c3ccc(F)cc3)CC2)C(=O)N1Cc1ccccc1 (stereo not given) | 0.4%
CC(=O)Nc1ccc(NC(=O)C(C)Sc2nc3ccccc3c(=O)n2Cc2ccco2)cc1 (stereo not given) | -7.2%
NNC(=O)c1ccc2nc(-c3ccc(Br)cc3)cn2c1 | -8.3%
O=C1c2ccccc2C(Nc2ccc(F)cc2F)N1CCN1CCOCC1 (stereo not given) | 3.4%
N#CCSc1nc2ccccc2c(=O)n1CCCC(=O)NCc1ccco1 | 7.0%
O=C(CNC(=O)Cn1ccc2ccccc2c1=O)NCCCN1CCCCCC1 | -8.4%
CC(=O)c1cccc(NC(=O)CC2S/C(=N/N=C/c3ccccc3)NC2=O)c1 (stereo not given) | -2.6%
O=S(=O)(NC1=NCCCCC1)c1ccc(F)cc1 | 5.7%
Cc1ccc(-c2nonc2NC(=O)c2ccco2)cc1 | 0.8%
COc1ccc(CCC(=O)N2CCCc3ccccc32)cc1 | 1.3%
Cc1[nH]c2ccccc2c1C(=O)COC(=O)c1c(-c2c(F)cccc2Cl)noc1C | -5.0%
C=CCNC(=O)COc1ccc(S(=O)(=O)Nc2ccc(OCC)cc2)cc1 | -3.7%
COc1cc2c(cc1OC)CN(C(=O)c1cc(S(=O)(=O)N3CCOCC3)c(Cl)cc1Cl)CC2 | -5.1%
O=C(NC(=S)NCCC1=CCCCC1)c1cccnc1 | -16.6%
Cc1ccc(S(=O)(=O)NCCN2CCOCC2)s1 | 3.9%
Cc1ccc2cc3c(NS(=O)(=O)c4cccc5nonc45)nn(CC(C)C)c3nc2c1 | 1.1%
NNC(=S)Nc1ccc(Cl)cc1 | -6.5%
NC(=O)CC[C@H](NC(=O)OCc1ccccc1)C(=O)OCc1ccc(Cl)cc1 | 0.9%
CCC(C(=O)OCC(=O)Nc1c(Cl)cc(Cl)cc1Cl)c1ccccc1 (stereo not given) | 2.8%

An excerpt from above in order of the N370S GC value, largest number first:
SMILES | N370S GC
CCC(C(=O)OCC(=O)Nc1c(Cl)cc(Cl)cc1Cl)c1ccccc1 (stereo not given) | 2.8%
Cc1ccc2cc3c(NS(=O)(=O)c4cccc5nonc45)nn(CC(C)C)c3nc2c1 | 1.1%
NC(=O)CC[C@H](NC(=O)OCc1ccccc1)C(=O)OCc1ccc(Cl)cc1 | 0.9%
COc1cc2c(cc1OC)CN(C(=O)c1cc(S(=O)(=O)N3CCOCC3)c(Cl)cc1Cl)CC2 | -5.1%

(more compounds)
SMILES | N370S GC
CC(=O)Nc1ccc(C(=O)N2CCN(C(=O)c3ccco3)CC2)cc1 | 0.4%
CCOC(=O)C1CCN(CC(=O)c2c(C)[nH]c3ccccc23)CC1 | -2.9%
O=c1[nH]ncc(NCCc2ccccc2)c1Cl | 5.1%
COc1ccc(NC(=S)N2CCN(S(=O)(=O)c3ccc(C)cc3)CC2)cc1 | -3.2%
CC(C(=O)NC(=O)NC1CCCCC1)N(C)CC(=O)Nc1ccc(F)c(F)c1F (stereo not given) | -3.7%
CCOC(=O)c1cnc2c(-c3ccccc3)cnn2c1C | 17.9%
COc1c2ccoc2nc2c(OC)c(OCC(OC(C)=O)C(C)(C)O)ccc12 (stereo not given) | -10.6%
COCCN(C(=O)CSc1nnc(-c2ccc(C)c(C)c2)o1)c1c(N)n(CC(C)C)c(=O)[nH]c1=O | -3.0%
Cc1c(C(=O)Nc2c(F)cccc2F)sc2ncnc(N3CCN(c4ccccc4)CC3)c12 | 5.0%
O=C(c1ccc(NC2=NC3CS(=O)(=O)CC3S2)cc1)N1CCN(Cc2ccccc2)CC1 (stereo not given) | 2.2%
CCCn1c(=S)[nH]c2cc(Cl)ccc21 | -2.4%
Cc1nnc(NC(=O)CCCCCN2C(=O)C3C4C=CC(C4)C3C2=O)s1 (stereo not given) | 1.0%
COc1ccccc1C(=O)Nc1cccnc1 | -1.0%
COc1ccc(NC(=O)c2ccccc2NS(=O)(=O)c2ccc(C)cc2)c([N+](=O)[O-])c1 | -6.7%
CN[C@]1(C)[C@H]2CC[C@@H](C2)C1(C)C | -1.8%[21.6 µM]
O=C(NCc1ccco1)C(c1ccco1)N(CCc1ccccc1)C(=O)Cn1nnc2ccccc21 (stereo not given) | -0.3%
COCCN(C(=O)c1ccco1)c1nnc(-c2ccc(F)cc2)s1 | 3.9%
COc1cccc(NC(=O)CCNS(=O)(=O)c2ccc(Br)s2)c1 | -11.7%
COC(=O)c1sccc1Oc1ccc(Cl)cc1N1C(=O)CCC1=O | -0.7%
CC(C)c1ccc(CN2C(=O)c3ccccc3S2(=O)=O)cc1 | 6.2%
COc1ccc(C2=NOC(Cn3nc(C(=O)NCc4ccc5c(c4)OCO5)cc3-c3ccccc3)C2)cc1 (stereo not given) | 7.7%
Cc1ccc(NC(=O)CN2CCN(CCN=CC3=C(O)CC(c4ccccc4)CC3=O)CC2)cc1 (stereo not given) | -11.4%
CS(=O)c1ccccc1COC(=O)Nc1ccccc1 (stereo not given) | 0.2%
CCCCOC(=O)C1=C(C)NC2(O)c3ccccc3C(=O)C12O (stereo not given) | 3.1%
COC(=O)C1=C(C)NC(=S)NC1c1ccc(OCC(=O)N2CCCCC2)c(OC)c1 (stereo not given) | -1.0%
CCOc1ccc(OCC)c(NS(=O)(=O)c2ccc3c(c2)n(C)c(=O)c(=O)n3C)c1 | 10.2%
Cc1c(NC(=O)CSc2nnnn2-c2ccc(F)cc2)c(=O)n(-c2ccccc2)n1C | 5.7%
CCOC(=O)CNC(=O)c1c(C)nn(C)c1Cl | -21.6%
O=C1Nc2ccc(F)cc2C12SCCS2 | 1.7%
CN(C)c1ccc(C(=O)C(O)c2ccc(C(C)(C)C)cc2)cc1 (stereo not given) | 4.6%
O=C(NNC(=O)c1cccnc1)NC12CC3CC(CC(C3)C1)C2 | 5.7%
Cc1ccccc1NC(=O)Cn1nnc(C(=O)NCc2ccco2)c1N | -1.7%
Cn1ncc(Br)c1N1C(=O)CCC1=O | -10.2%
CC1=C(C(=O)N2CCN(C(=O)c3ccco3)CC2)C2(CCC(C)CC2)OC1=O (stereo not given) | -3.7%
COCCNC(=O)CCSCc1ccccc1F | -7.9%
CCn1ncc(NC(=S)Nc2ccc(OC)c(OC)c2)c1C(N)=O | -4.5%
CCOc1c(C)cnc2c1c(=O)n(Cc1ccccc1F)c(=O)n2C | 0.4%
COCCn1c(-c2ccc(-c3ccc([N+](=O)[O-])cc3Br)o2)nc2c1c(=O)[nH]c(=O)n2CC(C)C | 7.0%
CCN(CC)S(=O)(=O)c1cc([N+](=O)[O-])ccc1N1CCC(C(N)=O)CC1 | -8.9%
c1ccc(N2CCN(CCCOc3ccc4c(c3)OCO4)CC2)cc1 | ?
O=C(NCCSCc1ccc(Cl)cc1)c1cccs1 | -8.4%
C/C(=N\NC(=O)Cc1csc(N2CCOCC2)n1)c1ccc(Cl)c(Cl)c1 | 4.9%
CCOCCn1c(N2CCN(c3ccc(OC)cc3)CC2)nc2c1c(=O)[nH]c(=O)n2C | 0.4%
O=C(NCCCCCCNC(=O)N1CCCCCC1)N1CCCCCC1 | 8.8%
COc1ccccc1CNC(=O)CCNS(=O)(=O)c1cccc2nonc12 | -8.3%
Cc1ccc2c(c1)NC(=O)C(CC(=O)NCCCN1CCN(c3cc(Cl)ccc3C)CC1)O2 (stereo not given) | 8.1%
COc1cc(C=O)ccc1OCCSc1ccc(C)cc1 | 4.1%
COC(=O)c1ccccc1NC(=O)CSc1nc(C)cc(C)n1 | 0.9%
CC1CCCCN1CCNC(=O)c1ccc2c(c1)N(Cc1cccc(Cl)c1)C(=O)c1ccccc1S2=O (stereo not given) | -12.9%
COc1ccc(S(=O)(=O)NC(C)C(=O)NCCN2CCOCC2)cc1Cl (stereo not given) | -5.3%

(next part)
SMILES | N370S GC
O=C(NCc1ccc(OC(F)(F)F)cc1)C12CN(Cc3ccccc3)CC1C(c1cccc([N+](=O)[O-])c1)=NO2 (stereo not given) | -7.8%
COc1ccc(NC(=O)CSCc2cc(=O)n3c(C)csc3n2)cc1 | 0.9%
CC(NC(=O)c1ccccc1F)C(=O)O (stereo not given) | 6.6%
O=[N+]([O-])/C=C/c1cn(Cc2ccc(Cl)cc2)c2ccccc12 | 8.0%
O=C1CCC2(C(=O)O)Sc3ccccc3N12 (stereo not given) | -15.7%
O=C(c1c[nH]c(C(=O)N2CCN(c3ccccc3F)CC2)c1)c1cccc(Cl)c1Cl | 8.3%
COc1cccc(-c2nc(CS(=O)(=O)CC(=O)NCCCOC(C)C)c(C)o2)c1 | -6.2%
Cc1cc2ncn(C3CC(=O)N(Cc4ccc(N5CCCC5=O)cc4)C3=O)c2cc1C (stereo not given) | 3.5%
COc1cccc(N2CC(NC(=O)C(=O)c3c[nH]c4ccccc34)CC2=O)c1 (stereo not given) | 4.6%
CCCCn1c(=O)nc2n(-c3ccccc3C)c3ccccc3cc-2c1=O | 29.3%
N=c1ccn2c(n1)OC1C(O)C(CO)OC12 (stereo not given) | 12.5%&1.2%&-4.7%
O=C(Nc1ccccc1C(F)(F)F)c1ccc(F)c(S(=O)(=O)N2CCOCC2)c1 | -9.1%[2.35 µM]
